FGF22 binding: binders of human FGF22 protein, primary screen, FGF22 synaptogenesis inhibitor project, biophysical, thermal shift, single point; recombinant FGF22 thermal shift, SYPRO orange fluorescence; percent of sucrose octasulfate shift, DMSO zero; Fibroblast growth factor 22 (Homo sapiens), Q9HCT0; 1.5% of 340,000 active; calls only at 9.99 µM; AID 651658, 2012;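 active means melting point raised past a set limit in the mean and every replicate; three in four hits are not shown here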
Target sequence (Q9HCT0 whole entry, looked up): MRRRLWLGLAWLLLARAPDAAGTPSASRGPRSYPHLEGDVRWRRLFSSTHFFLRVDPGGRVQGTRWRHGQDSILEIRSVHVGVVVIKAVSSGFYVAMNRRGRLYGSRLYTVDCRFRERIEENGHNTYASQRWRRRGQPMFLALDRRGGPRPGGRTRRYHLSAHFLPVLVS
MLL AF4-AF9 inh: inhibitors of AF4 peptide binding to AF9, primary screen, biochemical, AlphaScreen, biotin-AF4 peptide, FLAG-AF9, single point; Protein AF-9 (Homo sapiens), P42568; inhibition, % at 10 µM; 0.47% of 350,000 active; AID 651704, 2012;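 active means every replicate reaching a set inhibition limit, whatever the replicate mean, cut at about 25% in these data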;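 further: 0% = plate neutral control median and 100% = total signal loss; the record names both 10 and 1 µM as test concentration; the first replicate is given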
Target sequence (P42568 whole entry, looked up): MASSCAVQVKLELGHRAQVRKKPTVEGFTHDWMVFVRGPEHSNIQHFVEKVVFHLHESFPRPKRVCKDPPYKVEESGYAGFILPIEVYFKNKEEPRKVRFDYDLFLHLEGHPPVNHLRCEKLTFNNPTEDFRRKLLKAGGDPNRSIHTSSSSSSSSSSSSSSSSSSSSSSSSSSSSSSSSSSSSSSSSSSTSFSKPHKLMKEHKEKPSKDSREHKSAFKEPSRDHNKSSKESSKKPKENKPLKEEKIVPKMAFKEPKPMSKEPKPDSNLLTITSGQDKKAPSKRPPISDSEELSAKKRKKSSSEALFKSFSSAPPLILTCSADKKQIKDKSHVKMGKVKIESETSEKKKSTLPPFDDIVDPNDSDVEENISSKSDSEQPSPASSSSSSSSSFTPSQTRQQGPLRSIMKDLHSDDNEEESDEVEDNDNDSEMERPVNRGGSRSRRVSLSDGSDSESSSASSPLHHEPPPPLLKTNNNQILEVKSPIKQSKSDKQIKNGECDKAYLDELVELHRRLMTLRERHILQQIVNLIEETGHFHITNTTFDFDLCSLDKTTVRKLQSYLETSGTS
rRNA inh HTS: reduced GFP signal of wild-type E. coli, primary screen, bacterial rRNA inhibitor project, GFP/RFP fluorescence, OD600, single point; E. coli WT GFP vs humanized-ribosome RFP mutants, 24 h; hits give low values; DMSO median 0, no signal -100; GFP signal change (wild-type ribosome), % (no concentration beside the values); AID 720706, 2013; 1.6% of 350,000 active;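 active means significant combined selectivity score with lowered wild-type GFP, culture density cut under 30%, mutant RFP and density less affected; inactive means any of these conditions unmet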; further: one replicate is shown; some compounds called inactive have numbers as strong as hits
rRNA inh HTS OD600: second read-out of rRNA inh HTS, no call of its own (marks repeat the call); OD600 change, %; measured here: OD600 growth;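 optical density of the mix in the first replicate; 0 = DMSO median and -100 = no signal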
rRNA inh HTS RFP: recorded beside rRNA inh HTS, whose call it bears; RFP signal change, %; measured here: RFP humanized mutant strains;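 first replicate; 0 = DMSO median and -100 = no signal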
The depositor's hits bear a star; i = inactive; / = no result given; & = joins results of further samples.

The first 10 records, to show the layout:
Labels used below: A = FGF22 binding; B = MLL AF4-AF9 inh; C = rRNA inh HTS; D = rRNA inh HTS OD600; E = rRNA inh HTS RFP
> Cc1noc(C)c1NC(=O)N(C)C[C@@H]1Oc2ccc(NC(=O)Cn3cnnn3)cc2C(=O)N([C@@H](C)CO)C[C@H]1C
  A: i; B: -2.8; C: 2; D: 0; E: -0.2
> CN(C)C(=O)C[C@@H]1CC[C@@H]2[C@@H](COc3ccc(NC(=O)Nc4cccc(Cl)c4)cc3C(=O)N2C)O1
  A: i; B: 0.1; C: -2; D: -2; E: -0.2
> COC(=O)C[C@@H]1CC[C@H]2[C@H](COc3ccc(NC(=O)c4cccc(F)c4)cc3C(=O)N2C)O1
  A: i; B: -1.1; C: -4; D: -4; E: -1.6
> CCS(=O)(=O)Nc1ccc2c(c1)C(=O)N(C)C[C@H](OC)[C@@H](C)CN(Cc1ccccn1)[C@@H](C)CO2
  A: i; B: -1.9; C: -1; D: 2; E: -0.6
> C/C=C/c1ccc2c(c1)O[C@H](CN(C)Cc1ccccn1)[C@@H](C)CN([C@@H](C)CO)S2(=O)=O
  A: i; B: 4.7; C: -13; D: -24; E: -0.4
> CO[C@H]1CN(C)C(=O)c2ccc(NS(C)(=O)=O)cc2OC[C@H](C)N(C(=O)C2CC2)C[C@H]1C
  A: i; B: -1.3; C: 6; D: -2; E: -0.1
> C[C@H]1CN([C@@H](C)CO)C(=O)c2cccc(NC(=O)C3CC3)c2O[C@@H]1CN(C)Cc1ccc(Cl)c(Cl)c1
  A: i; B: 3.7; C: -4; D: -5; E: 1.0
> CCCCCCN1C[C@H](n2cc(COC(=O)c3ccccc3)nn2)[C@@H](O)C[C@@H]1c1ccccc1
  A: i; B: -2.8; C: 7; D: 2; E: -0.3
> COc1ccccc1CNC(=O)C[C@@H]1C[C@H]2c3cc(NC(=O)c4cccnc4)ccc3O[C@H]2[C@H](CO)O1
  A: i; B: 0.5; C: -3; D: -3; E: 0.7
> C[C@@H]1CN([C@@H](C)CO)C(=O)c2cccc(NC(=O)c3ccc(-c4nccs4)cc3)c2O[C@H]1CN(C)S(=O)(=O)c1ccc(Cl)cc1
  A: i; B: 1.0; C: -11; D: -11; E: 1.8

Main list, previewed entries included:
Labels used below: A = FGF22 binding; B = MLL AF4-AF9 inh; C = rRNA inh HTS; D = rRNA inh HTS OD600; E = rRNA inh HTS RFP
> Cc1noc(C)c1NC(=O)N(C)C[C@@H]1Oc2ccc(NC(=O)Cn3cnnn3)cc2C(=O)N([C@@H](C)CO)C[C@H]1C
  A: i; B: -2.8; C: 2; D: 0; E: -0.2
> CN(C)C(=O)C[C@@H]1CC[C@@H]2[C@@H](COc3ccc(NC(=O)Nc4cccc(Cl)c4)cc3C(=O)N2C)O1
  A: i; B: 0.1; C: -2; D: -2; E: -0.2
> COC(=O)C[C@@H]1CC[C@H]2[C@H](COc3ccc(NC(=O)c4cccc(F)c4)cc3C(=O)N2C)O1
  A: i; B: -1.1; C: -4; D: -4; E: -1.6
> CCS(=O)(=O)Nc1ccc2c(c1)C(=O)N(C)C[C@H](OC)[C@@H](C)CN(Cc1ccccn1)[C@@H](C)CO2
  A: i; B: -1.9; C: -1; D: 2; E: -0.6
> C/C=C/c1ccc2c(c1)O[C@H](CN(C)Cc1ccccn1)[C@@H](C)CN([C@@H](C)CO)S2(=O)=O
  A: i; B: 4.7; C: -13; D: -24; E: -0.4
> CO[C@H]1CN(C)C(=O)c2ccc(NS(C)(=O)=O)cc2OC[C@H](C)N(C(=O)C2CC2)C[C@H]1C
  A: i; B: -1.3; C: 6; D: -2; E: -0.1
> C[C@H]1CN([C@@H](C)CO)C(=O)c2cccc(NC(=O)C3CC3)c2O[C@@H]1CN(C)Cc1ccc(Cl)c(Cl)c1
  A: i; B: 3.7; C: -4; D: -5; E: 1.0
> CCCCCCN1C[C@H](n2cc(COC(=O)c3ccccc3)nn2)[C@@H](O)C[C@@H]1c1ccccc1
  A: i; B: -2.8; C: 7; D: 2; E: -0.3
> COc1ccccc1CNC(=O)C[C@@H]1C[C@H]2c3cc(NC(=O)c4cccnc4)ccc3O[C@H]2[C@H](CO)O1
  A: i; B: 0.5; C: -3; D: -3; E: 0.7
> C[C@@H]1CN([C@@H](C)CO)C(=O)c2cccc(NC(=O)c3ccc(-c4nccs4)cc3)c2O[C@H]1CN(C)S(=O)(=O)c1ccc(Cl)cc1
  A: i; B: 1.0; C: -11; D: -11; E: 1.8

Labels used below: A = FGF22 binding; B = MLL AF4-AF9 inh; C = rRNA inh HTS; D = rRNA inh HTS OD600; E = rRNA inh HTS RFP
> COC(=O)C1=C(C)N(Cc2ccc(Cl)cc2)C(=S)NC1c1cccc(F)c1 (centres undefined)
  A: i; B: -0.2; C: -4; D: -10; E: 2.4
> C[C@@H]1CN([C@@H](C)CO)C(=O)c2cc(/C=C/c3ccccc3)cnc2O[C@H]1CN(C)C(=O)c1ccccc1
  A: i; B: 7.6; C: -5; D: -24; E: 9.7
> C[C@H]1CN([C@@H](C)CO)C(=O)c2cc(NC(=O)CCCN(C)C)ccc2O[C@H]1CN(C)S(=O)(=O)c1ccc(Cl)cc1
  A: i; B: -4.8; C: 2; D: 11; E: -3.1
> Cc1cc(C)cc(C(O)c2ncc(-c3cccc(F)c3)[nH]2)c1 (centres undefined)
  A: i; B: 2.6; C: 0; D: -16; E: -6.7
> CCNC(=O)Nc1ccc2c(c1)C(=O)N(C)[C@H]1CC[C@@H](CC(=O)NC3CCCCC3)O[C@H]1CO2
  A: i; B: -1.4; C: 0; D: 0; E: -2.0
> C[C@@H]1CN([C@H](C)CO)C(=O)c2cc(NC(=O)Nc3ccc(C(F)(F)F)cc3)ccc2O[C@@H]1CN(C)CC1CCCCC1
  A: i; B: 2.6; C: -8; D: -7; E: -4.8
> O=C(NCc1ccc(F)cc1)c1cccc2c1C(=O)c1ccc(N3CCC(N4CCCCC4)CC3)cc1S2(=O)=O
  A: /; B: 3.7; C: 13; D: 7; E: -0.5
> COc1ccc(-c2cnc3c(c2)C(=O)N([C@H](C)CO)C[C@H](C)[C@H](CN(C)C(=O)Cc2ccncc2)O3)cc1
  A: i; B: -0.2; C: 0; D: 14; E: -0.4
> COC1C(O)C(O)C(O)C(O)C1O (centres undefined)
  A: i; B: -0.6; C: 4; D: 12; E: 2.5
> C[C@H](O)[C@@H]1CN2CCc3c([nH]c4ccccc34)[C@@H]2C[C@@H]1N(C)C(=O)OCc1ccccc1
  A: i; B: 7.5; C: -1; D: -1; E: 5.1

Labels used below: A = FGF22 binding; B = MLL AF4-AF9 inh; C = rRNA inh HTS; D = rRNA inh HTS OD600; E = rRNA inh HTS RFP
> O=C(Nc1cc(F)ccc1F)N1CCCCN2[C@H](CO)[C@@H](c3ccc(-c4ccccc4)cc3)[C@H]2C1
  A: i; B: 7.2; C: -58; D: -74; E: -14
> CCC(=O)N[C@H]1C=C[C@H](CC(=O)NCc2ccccc2F)O[C@H]1CO
  A: i; B: -0.3; C: 6; D: 4; E: -0.1
> Cc1ccc(-c2ccc([C@@H]3[C@@H](CO)N4C(=O)CN(C(=O)NC(C)C)C[C@H]34)cc2)cc1
  A: i; B: 1.2; C: -2; D: -5; E: 0.2
> C[C@H](CO)N1C[C@H](C)[C@H](CN(C)S(=O)(=O)c2cn(C)cn2)Oc2ccc(NS(=O)(=O)c3ccc(F)cc3)cc2C1=O
  A: i; B: -6.8; C: 2; D: -1; E: -3.5
> C[C@H](CO)N1C[C@H](C)[C@H](CN(C)C(=O)Nc2ccccc2)Oc2ncc(Br)cc2C1=O
  A: i; B: 2.3&-1.6; C: 1; D: -4; E: -2.8
> C[C@@H]1CN([C@H](C)CO)C(=O)Cc2cc(NC(=O)CCN3CCOCC3)ccc2O[C@H]1CN(C)CC1CCCCC1
  A: i; B: 0.7; C: 4; D: 14; E: 0.6
> C/C=C/c1ccc2c(c1)O[C@@H](CN(C)C(=O)c1cnccn1)[C@@H](C)CN([C@@H](C)CO)S2(=O)=O
  A: i; B: -3.4; C: 6; D: 3; E: -1.2
> C[C@H](CO)N1C[C@H](C)[C@H](CN(C)C(=O)Nc2cccc3ccccc23)Oc2ncc(-c3cccc(F)c3)cc2C1=O
  A: i; B: 2.3; C: -5; D: -11; E: 2.9
> O=C(C[C@@H]1CC[C@H]2[C@@H](COC[C@@H](O)CN2C(=O)Nc2ccc(C(F)(F)F)cc2)O1)NCC1CC1
  A: i; B: 0.9; C: -62; D: -81; E: -23
> O=S(=O)(c1ccccc1)N1CC[C@@H]2[C@H]1c1cc(Br)ccc1N[C@@H]2CO
  A: i; B: 6.9; C: -19; D: -37; E: -5.2

Labels used below: A = FGF22 binding; B = MLL AF4-AF9 inh; C = rRNA inh HTS; D = rRNA inh HTS OD600; E = rRNA inh HTS RFP
> COC(=O)c1nc(-c2ccc(C)cc2)[nH]c1C(C)(C)C
  A: i; B: 0.5; C: -21*; D: -12*; E: 1.8*
> COc1ccc(NC(=O)C2(C)CCN2C(=O)c2ccc(C(C)(C)C)cc2)cc1OC (centres undefined)
  A: i; B: -1.5; C: 5; D: 13; E: 0.4
> CSC(=Cc1ccc(C(=O)c2ccc(C)cc2)n1C)S(C)=O (centres undefined)
  A: i; B: 18; C: -3; D: -21; E: 5.5
> COc1ccc(NC(=O)N(C)C[C@@H]2Oc3c(NC(=O)c4cnccn4)cccc3C(=O)N([C@@H](C)CO)C[C@H]2C)cc1
  A: i; B: -5.0; C: 3; D: 1; E: -1.0
> COc1ccc(S(=O)(=O)N2CCCCN3[C@H](CO)[C@H](c4ccc(C#CC(C)C)cc4)[C@@H]3C2)cc1
  A: i; B: -5.8; C: 2; D: -1; E: 11
> CCCNC(=O)N1CC2(C1)CN(C(C)=O)[C@@H](CO)c1c2c2ccc(OC)cc2n1C
  A: i; B: -1.0; C: 4; D: -3; E: -0.3

High-throughput results from PubChem BioAssay.

Only part of the results is shown, so the mix of outcomes need not match the whole.
